NPYLR7 agonist: activates Aedes aegypti NPYLR7 receptor | 270,000 compounds, 0.15% hits | activation, % at 10 µM | HEK293T NPYLR7/Galpha15, GCaMP6s calcium fluorescence; in the data active means activation above about 40%;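 further: 0% = vehicle and 100% = reference agonist at the receptor; some compounds past the cut are filed as inactive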
NPYLR7 agonist max-min: also measured in NPYLR7 agonist; calls as there; activation, %; measured here: Max-Min RFU normalised activation; some inactives read as strong as hits;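 span of the calcium signal over five minutes; 0% = vehicle and 100% = native peptide agonist; compound fluorescence can raise it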
An asterisk follows results filed as active; & = joins results of further samples.

Compound	NPYLR7 agonist max-min	NPYLR7 agonist
O=[N+]([O-])c1cccc(CN2CCCn3cccc3C2c2cccc(O)c2)c1 (configuration not stated)	11	0
CCc1cccc2c(C(CC(=O)NC(C)C)c3cccc(OC)c3OC)c[nH]c12 (configuration not stated)	4	-3
O=C(Nc1ccccc1N1CCCC1)c1cc(C2CC2)on1	-2	-2
CCOC(=O)N1CCN(/C=C(\C#N)S(=O)(=O)c2ccc(OC)cc2)CC1	3	6
CCOC(=O)NC1CS(=O)(=O)CC1Cl (configuration not stated)	4	5
COCCCN(Cc1ccc(OS(C)(=O)=O)cc1)C(=O)Nc1c(Cl)cccc1Cl	22	15
CN(Cc1nc2ccc(F)cc2[nH]1)C(=O)CCC1CCOC1=O (configuration not stated)	1	-1
Cc1ccsc1CN(Cc1ccc(F)cc1)C(=O)CN(C1CC1)S(=O)(=O)c1ccc(C(C)(C)C)cc1	4	-3
CCOC(=O)c1cc(-c2ccccc2)sc1NC(=O)Cc1ccc(F)cc1	6	12
CCN1CCN(Cc2cncc(-c3cc(C)ccc3C)c2)CC1	4	6
Cc1ccc(F)c(S(=O)(=O)NCc2noc(C(C)(C)C)n2)c1	-1	2
O=C(NC(=S)N1CCCC1)c1ccccc1	19	2
CC(C)(NC(=O)CCn1ccc(=O)[nH]c1=O)c1cccc2ccccc12	1	8
Cc1noc(Cl)c1CC(=O)NCC(C)(C)NC(C)c1ccccc1 (configuration not stated)	2	4
COCCNC(=O)CCN1C(=O)CSC1c1cccc(C)c1 (configuration not stated)	26	23
C=CCn1c(CCN2CCCCC2)n[nH]c1=S	0	1
COc1cc(S(=O)(=O)Nc2ccc(Cl)cc2)ccc1NC(=O)CC(C)(C)C	-2	0
O=C(c1ccc(-c2ccncc2)nc1)N1CCCN(C2CCCCC2)CC1	5	6
C=CCCC(=O)N1CCC2(CC1)[C@H](C(=O)N(C)c1ccccc1)[C@@H](OC)C(=O)N2C	19	11
CCN(CC)Cc1cnc2c(C(=O)N(CC)C3CCOC(C)(C)C3)cnn2c1 (configuration not stated)	-9	-5
CCCN(Cc1c(C)nn(-c2ccccc2)c1Oc1ccc(C)cc1)CC(O)c1ccccc1 (configuration not stated)	10	9
C=CCOCC(O)CN(Cc1ccccc1)Cc1ccc(C)o1 (configuration not stated)	28	26
O=C(c1cnn2c(C(F)(F)F)cc(-c3ccco3)nc12)N1CCOCC1	4	5
O=C(C1CCN(S(=O)(=O)c2ccccc2)CC1)N1CCC(CCc2ccccc2)CC1	-7	-3
CC(NC(=O)C1CC=CCC1C(=O)O)c1ccc(Cl)cc1Cl (configuration not stated)	-2	1
CCC1CCC(C(=O)NCc2nc(Cc3ccccc3)n[nH]2)CC1 (configuration not stated)	1	2
CN(C)C(=O)CN1CCC2(CCCO2)CCC1=O (configuration not stated)	3	7
Cc1ccc2[nH]c3c(=O)n(CC(=O)NC4CC4)cnc3c2c1	6	7
CCS(=O)(=O)c1cccc(C(=O)N(Cc2cccnc2)c2nc3cc(C)c(C)cc3s2)c1	-4	-4
COc1cc(NC(=O)Cn2c3ccccc3c(=O)c3ccccc32)cc(OC)c1	-5	-2
COc1ccc(CN2C3CCC2CC(NC(=O)c2ccc(C(F)(F)F)c(F)c2)C3)c(OC)c1 (configuration not stated)	3	3
O=C(CCn1ccccc1=O)N1CCC2(CCCO2)CC1	-4	-6
COCCOC(=O)C1=C(C)N(C)C(=O)NC1c1ccccc1I (configuration not stated)	-8	-2
COc1ccc(OC)c(CCNc2nc3cnc(-c4cccc5ccccc45)cc3n2C)c1	43*	59*
CCCC(=O)Nc1cc(-c2cn3nc(OC)ccc3n2)ccc1Cl	-13	-8
CN1CCC(N(C)c2ccc(-c3nc(CCc4ccccc4)no3)cn2)C1 (configuration not stated)	5	5
COc1ccc(NC(=O)C2C(=O)CN(c3ccccc3)C2=O)cc1 (configuration not stated)	3	-4
CCOc1ccccc1CN1CCCC(CNC(=O)C2(c3ccc(Cl)cc3)CC2)C1 (configuration not stated)	-4	-4
N#Cc1c(C[n+]2ccccc2)cc(=O)n2c1[nH]c1ccccc12	2&2	4&1
CN(Cc1ccc(OC(F)(F)F)cc1)C(=O)c1cccc(NS(C)(=O)=O)c1	2	4
Cc1cccc(C(=O)N(Cc2ccccc2)Cc2cc(NC(=O)C3CC3)ccc2N(C)C)c1	11	7
N#CC1C(=O)NC(=S)C(C(N)=O)C12CCCCC2 (configuration not stated)	2	2
Clc1cc(Cl)c2cccc3c2c1N=C3N1CCCCCC1	-8	-8
CCCCn1c(=O)c2c(nc3n2CCCN3c2ccc(F)cc2)n(C)c1=O	-2	-2
Cc1ccc(CN(C)C(=O)CNc2ccc3oc(=O)n(C)c3c2)o1	1	5
O=C(CCc1ccc(F)cc1)Nc1ccc(N2CCCCC2)nc1	3	3
Cn1cc(C(=O)Nc2ccc(Cl)cc2)c2[nH]c(=O)n(-c3ccc(F)cc3)c(=O)c21	1	4
Cc1ccc(-c2cc3c(=O)n(Cc4nc(-c5ccccc5)oc4C)ccn3n2)cc1	-5	-1
O=C(NC1CC1)C1COC2(CCN(C(=O)c3ccc(F)cc3)CC2)N1C(=O)c1cccc(F)c1 (configuration not stated)	4	-2
Cc1nnc(SCC(=O)N2CCCC(C(=O)c3cccc(OC(C)C)c3)C2)s1 (configuration not stated)	4	8
CCn1ccnc1CN(C)c1cc(C2CCNCC2)nc(C)n1	6	1
COCC(C)NC(=O)CSC12CC3CC(CC(C3)C1)C2 (configuration not stated)	1	4
Cc1occc1C(=O)NS(=O)(=O)c1c(Cl)nc2ccccn12	-6	-2
COc1ccc(S(=O)(=O)c2cnc(SCC(=O)Nc3ccc(C)c(F)c3)[nH]c2=O)cc1	-5	-4
COCc1cc(N2CCN(Cc3ccccc3)CC2)nc(SCc2ccc(C(=O)O)o2)n1	15	4
CCN1CC2([N+](=O)[O-])C=C(C(=O)O)CC([N+](=O)[O-])(C1)C2 (configuration not stated)	1	1
N#Cc1c(-c2ccccc2)cc(-c2ccccc2)nc1C(C#N)C#N	-4	-1
COc1ccc(C)cc1NC1CCCN(C(=O)CC(C)(C)C)C1 (configuration not stated)	2	-2
COCCNC(=O)[C@@]1(OCc2cccc(F)c2)CC(OCc2cccc(C(F)(F)F)c2)[C@@H]2OC(C)(C)O[C@@H]2C1 (some centres not stated)	36	11
COCCCN1C(=O)C(=Cc2c(NCC3CCCO3)nc3ccccn3c2=O)SC1=S (configuration not stated)	4	3

The list continues.
Compound	NPYLR7 agonist max-min	NPYLR7 agonist
O=C(c1ccc2ccccc2c1)N1CCC(n2c(=O)[nH]c3ccccc32)CC1	-19	-13
Nc1nc(C(Cl)(Cl)Cl)nc(-c2ccccc2)c1C(=O)c1ccccc1	-16	-11
Cc1cc(C)n(CC(C)N2CCC(N3CCC(C(=O)NC4CC4)CC3)CC2)n1 (configuration not stated)	8&16	21&22
O=C(c1cn2ccccc2n1)N1CCc2c([nH]c3ccccc23)C1c1ccccn1 (configuration not stated)	17	15
CNc1cccc(-c2cccc(C#N)c2)n1	-1	1
O=C(c1ccc(Cn2cccn2)o1)N1CC[C@H](CO)[C@H](O)C1	18	2
O=C(O)CCCN1C(=O)S/C(=C/c2ccc(Br)cc2)C1=O	2	6
CCC(C(=O)NCC(C)C)n1c(=O)n(-c2ccccc2Cl)c(=O)c2ccccc21 (configuration not stated)	-5	-6
Cc1cc(CN(C)C(C)C(N)=O)cc(C)c1OCC(F)(F)F (configuration not stated)	3	6
Cn1ccc(CN2C(=O)NC(C)(c3ccccc3C(F)(F)F)C2=O)cc1=O (configuration not stated)	0	3
CC(=O)c1ccc(N=Nc2c(C)[nH]n(-c3ccccc3)c2=O)cc1	-15	-7
COc1ccc(Cn2ccnc2CN(CC(C)C)C(=O)c2ccc(Cl)cc2)cc1	31	25
CC(C)(C)CC(C)(C)c1ccc(OCC(=O)NNC(=O)c2cc([N+](=O)[O-])cc([N+](=O)[O-])c2)cc1	-9	-3
Cc1cccc(S(=O)(=O)NCC2(NC(C)c3ccccc3)CCOCC2)c1 (configuration not stated)	-16	-1
Cc1ccc(CCCCC(=O)N2CCCCC2CNC(N)=O)cc1 (configuration not stated)	3	6
COc1cccc(-c2nc3c(OCc4ccccc4)cccn3c2NC(C)(C)C)c1	-5	-7
CC1(C(=O)NS(=O)(=O)c2ccc3ccccc3c2)CCN1C(=O)Cc1ccc(-c2ccccc2)cc1 (configuration not stated)	-5	-3
CC(Oc1ccc(O)cc1)(P(=O)(O)O)P(=O)(O)O	-13	2
CC(C)C(NC(=O)Nc1ccccc1C(F)(F)F)C(=O)N1CCOCC1 (configuration not stated)	-1	2
CCOC(=O)C(c1cc(OC)ccc1OC)C1C=CC(NC(=O)c2ccccc2OC(F)(F)F)C1 (configuration not stated)	-6	0
CCc1nc(C)c(C(=O)N2CCn3cccc3C2c2ccccn2)o1 (configuration not stated)	-3	1
Cc1ccc(S(=O)(=O)N2CCN(C(=O)C3CCC3)CC2)cc1C	4	1
O=C(c1ccc(-c2ccccc2)c(F)c1)C1CCCN(C2CCSCC2)C1 (configuration not stated)	7	6
Cc1nn(C)c(C)c1CCC(=O)N(C)C(C)c1nccs1 (configuration not stated)	9	7
COc1ccccc1C(=O)N1CCN(c2ccc3c(c2)OCO3)C(=O)C1C (configuration not stated)	14	18
CNS(=O)(=O)CC1CCCN1C(=O)c1ccc(C)c(C)c1 (configuration not stated)	-6	-4
Cc1cnc(C(=O)N2CC(c3ccncc3)C2)cn1	2	2
COc1ccc(C(NC(=O)C2CCN(Cc3ccccc3)CC2)c2ccccn2)cc1 (configuration not stated)	1	11
COc1ccc(S(=O)(=O)N2CCN(c3ncccc3C(=O)NCc3cccs3)CC2)c(OC)c1	7	21
COc1ccc(-n2nnc3c(SCC(=O)OCc4ccccc4)ncnc32)cc1	14	16

Complete entries from above.
`COc1ccc(S(=O)(=O)N2CCN(c3ncccc3C(=O)NCc3cccs3)CC2)c(OC)c1` as listed: NPYLR7 agonist max-min: 7; NPYLR7 agonist: 21
`Cc1cnc(C(=O)N2CC(c3ccncc3)C2)cn1` as listed: NPYLR7 agonist max-min: 2; NPYLR7 agonist: 2

Entries listed so far with a cyano group, in the order listed:
Compound	NPYLR7 agonist max-min	NPYLR7 agonist
CCOC(=O)N1CCN(/C=C(\C#N)S(=O)(=O)c2ccc(OC)cc2)CC1	3	6
N#Cc1c(C[n+]2ccccc2)cc(=O)n2c1[nH]c1ccccc12	2&2	4&1
N#CC1C(=O)NC(=S)C(C(N)=O)C12CCCCC2 (configuration not stated)	2	2
N#Cc1c(-c2ccccc2)cc(-c2ccccc2)nc1C(C#N)C#N	-4	-1
CNc1cccc(-c2cccc(C#N)c2)n1	-1	1

The results go on:
Compound	NPYLR7 agonist max-min	NPYLR7 agonist
Cc1cc(Br)ccc1NC(=O)CNC(=O)CCCSc1ccccc1	9	3
CCN(Cc1cc(Cl)ccc1OC)C(=O)[C@@H](N)Cc1ccccc1	2	5
O=C(O)C1CN(c2ncccn2)CCN1C(=O)CCc1cccnc1 (configuration not stated)	5	22
CCc1[nH]n2c(=O)cc(CSc3nccc(C)n3)nc2c1-c1ccc(F)cc1	-27	-18
COc1ccc(S(=O)(=O)N(CC(=O)NCc2ccccc2)c2ccc(C)cc2)cc1OC	1	3
COc1ccc(-c2ccc(CCC(=O)N3CCN(c4ccccc4)CC3)n2-c2ccc(SC)cc2)cc1	-1	0
Cc1ccc(CNC(=O)Cn2c(-c3nnc(C(C)C)o3)cc3ccccc32)cc1	0	0
Cc1ccc2[nH]c(C(=O)N3CCn4cccc4C3c3cccnc3)c(C)c2c1 (configuration not stated)	7	21
CC(O)CN1CCN(c2cc(C(C)C)nc(C(C)C)n2)CC1C (configuration not stated)	3&-1	2&-3
CC1(C)CCC[C@]2(C)C=C(C3OCCO3)C(=O)C[C@@H]12	0	3
CCc1ccccc1NC(=O)Cn1cccc(-c2nc(-c3ccc(C)cc3)no2)c1=O	1	0
Cc1c(NC(=O)Nc2ccccc2-c2ccccc2)n(C)c(=O)n1-c1ccccc1	-17	-10
COc1ccc2[nH]c(C)cc(=O)c2c1	8	3
COc1ccc(OCC(O)CNC(C)(C)C)c(C(C)(C)C)c1 (configuration not stated)	-6	-6
COCCN(Cc1cccs1)C(=O)c1cc2ccccc2o1	2	2
O=C(c1cc2c(cc1O)OCO2)N1CCC(Nc2cccnn2)CC1	1	3
O=C1c2ccccc2NC2(CCSC2)N1c1ccc2c(c1)OCO2 (configuration not stated)	-1	-1
O=C(N1CCC(c2nc(-c3ccc(Cl)cc3)no2)CC1)C1(c2ccc(Cl)cc2)CCCC1	1	6

Source: PubChem BioAssay (Fisher Drug Discovery Resource Center)

Only part of the results is shown; the hit share may differ from the screen's.
